Ecoli rRNA inh = inhibitors of bacterial rRNA selective over humanized ribosomes; E. coli WT GFP vs humanized-ribosome RFP mutants, fluorescence, 24 h; stronger effect = lower value; DMSO median 0, no signal -100; GFP signal change (wild-type ribosome), % (no concentration beside the values); 1.6% of 350,000 active; AID 720706;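 active means significant combined selectivity score with lowered wild-type GFP, culture density cut under 30%, mutant RFP and density less affected; inactive means any of these conditions unmet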; further: one replicate is shown; some compounds called inactive have numbers as strong as hits
Beta apoptosis = beta cell apoptosis inhibition | INS-1E cytokine-induced death, ATP luminescence, 48 h; percent of positive-control rescue, neutral wells zero | protection from apoptosis, % (no concentration beside the values) | 0.8% of 300,000 active | AID 435005;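 active means all replicates at 75% or more, or half of them and the mean; inconclusive means half reach 75% but not the mean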;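 further: 0% = cytokine-treated negative control wells and 100% = positive control rescue; higher means more ATP so stronger rescue from cytokine killing; wells of about 40 µL received 100 nL stock; the first replicate is given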
RanGTP-Imp inh = disruptors of Ran-importin-beta complex formation – biochemical, FRET, CFP-Ran, YFP-importin-beta, homogeneous, primary screen; cell-free CFP-Ran/YFP-importin-beta FRET ratio; 1.1% of 300,000 active; inhibition, % (no concentration beside the values);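 active means most replicates above 15%; inconclusive means exactly half above 15%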;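 further: 0% = DMSO wells and 100% = Ran loaded with GDP instead of GTP; wells of about 40 µL received 100 nL stock; the first replicate is given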
Vif A3G = HIV-1 Vif–A3G interaction blockers – biochemical, TR-FRET, GST-Vif 1-94, biotin-A3G peptide, dose response retest, primary screen (AID 1117319); TR-FRET GST-Vif / biotin-A3G peptide binding; higher % means a stronger effect; test concentration not given here; strong numbers were not always called active; inhibition, %; hits with a dose series show IC50 in µM; 0.57% of 260,000 active;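 active means above the screen mean plus three standard deviations and confirmed in dose response; inconclusive means results disagree or hit not tested in dose response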;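 further: Vif residues 1-94 fused to GST binding biotinylated APOBEC3G peptide 110-148; 0% = full assay without inhibitor and 100% = GST in place of GST-Vif; retest series ran down from 100 µM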
T cruzi repl = blocks replication of Trypanosoma cruzi; inhibition, % (test concentration not listed); T. cruzi beta-gal in NIH3T3, luminescence, 90 h; 1.4% of 300,000 active; AID 1885;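 active means mean inhibition across valid replicates above about 55%, limit read from the data; inconclusive means mean below that limit but half or more replicates reach it; inactive means mean below it, under half of replicates reach it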;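 further: signal also drops with host cell toxicity which is not excluded here; 0% = plate median of DMSO wells and 100% = zero luminescence signal; higher percent means less beta-gal luminescence so fewer parasites; stock transfer was 50 nL into about 50 µL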
AF4-AF9 inh = blocks AF4 peptide binding to human AF9; AlphaScreen, biotin-AF4 peptide binding to FLAG-AF9; inhibition, % at 10 µM; 0.47% of 350,000 active; AID 651704;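 active means every replicate reaching a set inhibition limit, whatever the replicate mean, cut at about 25% in these data; inconclusive means mean inhibition reaches that limit but some replicates miss it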;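 further: 0% = plate neutral control median and 100% = total signal loss; the record names both 10 and 1 µM as test concentration; the first replicate is given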
Target sequence (P42568 whole entry, looked up): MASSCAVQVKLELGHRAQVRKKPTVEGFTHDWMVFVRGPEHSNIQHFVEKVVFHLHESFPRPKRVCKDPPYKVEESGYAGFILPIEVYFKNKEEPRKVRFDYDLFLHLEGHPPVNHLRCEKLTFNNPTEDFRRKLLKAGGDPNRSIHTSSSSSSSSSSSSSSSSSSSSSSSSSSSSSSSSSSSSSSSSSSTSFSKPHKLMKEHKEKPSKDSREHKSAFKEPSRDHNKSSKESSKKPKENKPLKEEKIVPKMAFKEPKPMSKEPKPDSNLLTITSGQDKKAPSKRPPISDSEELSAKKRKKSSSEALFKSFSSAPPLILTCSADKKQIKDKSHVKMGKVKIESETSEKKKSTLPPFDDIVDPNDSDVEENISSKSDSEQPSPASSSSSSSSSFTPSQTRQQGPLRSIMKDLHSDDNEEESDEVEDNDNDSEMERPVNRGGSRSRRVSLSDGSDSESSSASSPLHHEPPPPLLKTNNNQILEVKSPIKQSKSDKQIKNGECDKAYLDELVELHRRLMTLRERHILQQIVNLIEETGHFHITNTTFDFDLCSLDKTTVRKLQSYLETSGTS
Calb FLC = C. albicans growth modulation with fluconazole | C. albicans CaCi-2 (fluconazole-resistant clinical isolate) + fluconazole, Alamar Blue growth, 48 h | growth inhibition, % (concentration not given with the values) | 0.57% of 300,000 active | AID 1979;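 active means most replicates above 75%; inconclusive means exactly half above 75%; inactive means most below 75%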;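 further: all wells also contain fluconazole at 8 µg/ml as a sub-toxic cotreatment; 0% = median of DMSO wells and 100% = median of geldanamycin control wells; wells of about 8 µL received 7.5 nL stock; the first replicate is given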
Bfl-1 A1 inh = inhibitors of the anti-apoptotic protein A1, read as caspase activation; AID 2462; 0.066% of 330,000 active; caspase activation, % (no concentration beside the values); MEF A1-2A-BIM cells, Caspase-Glo 3/7 luminescence, 3 h; percent of clofoctol response, vehicle zero;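 active means over half of replicate activation scores above 10%, or exactly half above 10 with the replicate mean above 10; inconclusive means replicate mean below 10 yet half the replicates above 10; inactive means over half of replicates below 10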;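 further: wells of about 30 µL received 50 nL stock; many hits fall short of the cut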
Ecoli rRNA inh OD600 = recorded beside Ecoli rRNA inh, whose call it bears; OD600 change, %; measured here: OD600 growth;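 optical density of the mix in the first replicate; 0 = DMSO median and -100 = no signal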
Ecoli rRNA inh RFP = also measured in Ecoli rRNA inh; calls as there; RFP signal change, %; measured here: RFP humanized mutant strains;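 first replicate; 0 = DMSO median and -100 = no signal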
Numbers without * were called inactive; ? = inconclusive; . = not tested or not shown; & = joins results of further samples. A portion of the library; count on the stated rates, not on these rows.

SMILES	Ecoli rRNA inh	Ecoli rRNA inh OD600	Ecoli rRNA inh RFP	Beta apoptosis	RanGTP-Imp inh	Vif A3G	T cruzi repl	AF4-AF9 inh	Calb FLC	Bfl-1 A1 inh
O=C(CC1OC(=O)c2ccccc21)Nc1cc(Cl)ccc1N1CCCC1 (stereo unspecified)	1.0	5.0	-2.0	-1.2	-1.8	-4.3%	0.3	-1.1	-4.6	0.3
COc1ccc(Br)c(/C=N/NC(=O)COc2ccc(-c3ccccc3)cc2)c1	.	.	.	-9.1	5.4	0.3%	-4.2	.	1.4	0.2
C=CCSc1ccccc1C(=O)Nc1ncn[nH]1	19.4	8.9	6.7	-5.9	3.5	.	-20.7	0.1	5.1	0.1
CCN(CC)CCn1c(N)c(S(=O)(=O)c2ccccc2)c2nc3ccccc3nc21	-22.1	-26.5	1.1	.	0.0	27.0%	25.7	0.5	0.1	-0.5
O=c1[nH]nc(Cc2ccc3ccccc3n2)c2ccccc12	.	.	.	-3.5	0.3	-4.5%	-3.1	.	0.1	0.4
CC(C)C(=O)Nc1cccc(NC(=S)NC(=O)c2ccc(Cl)cc2)c1	.	.	.	6.2	5.0	-5.4%	-10.9	.	9.3	-0.3
COc1ccc(CC(=O)N/N=C/C=C/c2ccc3c(c2)OCO3)cc1OC	7.4	2.5	6.3	-5.2	-3.0	?	-8.5	-0.5	-7.7	0.5
CCC1(C)Cc2c(sc3nnn(Cc4ccccc4Cl)c(=O)c23)CO1 (stereo unspecified)	.	.	.	4.7	0.2	-0.3%	8.2	.	18.3	0.1
O=C(NCc1ccc2c(c1)OCO2)C1CC(=O)N(CCc2ccc(Cl)cc2)C1 (stereo unspecified)	-12.7	3.3	1.3	-3.6	3.6	-1.5%	9.8	-0.5	-11.5	-0.5
COc1ccc(C2N(C(=O)N3CCOCC3)CCN2S(=O)(=O)c2ccc(C)cc2)cc1 (stereo unspecified)	3.7	8.8	6.0	-13.8	-1.2	16.4%	5.6	3.6	-10.4	-0.9
COC(=O)CNC(=O)C(C)(C)Oc1ccc(Cl)cc1	.	.	.	.	2.5	-6.5%	-4.6	.	-1.6	0.4
Cn1nc(C(=O)NCC(=O)Nc2ccc(F)c(F)c2F)c2ccccc2c1=O	2.1	5.4	0.5	-7.2	.	0.7%	.	-2.1	.	-0.1
O=C(CC(c1ccccc1)c1ccco1)Nc1nccs1 (stereo unspecified)	.	.	.	4.9	2.6	4.6%	9.1	.	-7.4	-0.5
CC(=O)N1CCN(c2ccc(NC(=O)/C=C/c3ccccc3)cc2)CC1	0.3	1.0	3.1	-2.6	.	-0.7%	-15.0	20.7	-2.0	-0.1
O=C(Cc1csc(NC(=O)c2ccc(F)cc2)n1)NO	-4.6	2.4	-5.4	-3.5	7.8	-3.4%	-3.0	4.6	-5.3	-1.3
O=C(CSc1nnnn1-c1ccccc1)NCc1cccs1	.	.	.	6.2	0.2	7.6%	6.5	.	-2.9	1.5
CC(C)[C@H]1COCCS(=O)(=O)N1Cc1ccc(Cl)cc1	-13.9	-16.6	-5.4	-1.7	0.8	.	-1.4	-17.0	22.2	0.2
CCOC(=O)C1=C(C)NC(=O)NC1c1ccc(OCC(=O)N2CCCCC2)cc1 (stereo unspecified)	.	.	.	-2.4	0.6	-1.0%	-5.5	.	11.5	0.5
O=C(C1CCC(N2C(=O)C3CC=CCC3C2=O)CC1)N1CCCCC1 (stereo unspecified)	1.0	7.3	-1.2	3.2	-1.7	5.2%	-11.3	5.6	-8.4	0.0
COCCCn1c(=S)[nH]c2ncccc2c1=O	.	.	.	2.3	2.5	1.0%	-2.1	.	-3.3	-0.5
CCOc1ccccc1/C=N/Nc1nc(C)cc(=O)[nH]1	.	.	.	-0.5	-5.6	8.6%	-7.8	.	-4.1	-0.5
CCCCOc1ccc(C2C(C(=O)c3cccs3)=C(O)C(=O)N2CCN2CCOCC2)cc1 (stereo unspecified)	-3.7	-8.9	6.2	2.4	0.2	.	-0.9	2.1	-1.0	0.6
COc1ccc(C(=O)N/C(=C\c2ccccc2)C(=O)Nc2cccc(C(=O)O)c2)cc1	-1.6	-2.7	-3.4	-1.2	4.9	.	-7.3	-0.6	5.3	0.4
Cc1cccc2cc(COC(=O)C3CCCO3)c(=O)[nH]c12 (stereo unspecified)	.	.	.	-5.7	0.0	4.3%	-6.9	.	-4.5	0.2
COC(=O)c1c(NC(=O)c2ccc(C)cc2)sc(Cc2ccccc2)c1C	.	.	.	2.7	6.3	-8.6%	-1.2	.	-13.8	0.5

Brought forward from above: 6 compounds, then new ones.
SMILES	Ecoli rRNA inh	Ecoli rRNA inh OD600	Ecoli rRNA inh RFP	Beta apoptosis	RanGTP-Imp inh	Vif A3G	T cruzi repl	AF4-AF9 inh	Calb FLC	Bfl-1 A1 inh
COCCCn1c(=S)[nH]c2ncccc2c1=O	.	.	.	2.3	2.5	1.0%	-2.1	.	-3.3	-0.5
CCOc1ccccc1/C=N/Nc1nc(C)cc(=O)[nH]1	.	.	.	-0.5	-5.6	8.6%	-7.8	.	-4.1	-0.5
CCCCOc1ccc(C2C(C(=O)c3cccs3)=C(O)C(=O)N2CCN2CCOCC2)cc1 (stereo unspecified)	-3.7	-8.9	6.2	2.4	0.2	.	-0.9	2.1	-1.0	0.6
COc1ccc(C(=O)N/C(=C\c2ccccc2)C(=O)Nc2cccc(C(=O)O)c2)cc1	-1.6	-2.7	-3.4	-1.2	4.9	.	-7.3	-0.6	5.3	0.4
Cc1cccc2cc(COC(=O)C3CCCO3)c(=O)[nH]c12 (stereo unspecified)	.	.	.	-5.7	0.0	4.3%	-6.9	.	-4.5	0.2
COC(=O)c1c(NC(=O)c2ccc(C)cc2)sc(Cc2ccccc2)c1C	.	.	.	2.7	6.3	-8.6%	-1.2	.	-13.8	0.5
COc1ccc(Cc2nc(-c3ccc(NC(=O)c4cccnc4)cc3)no2)cc1	.	.	.	107.3*	7.2	-5.3%&4.2%	-16.6	.	-1.5	-0.2
COc1ccc(-c2nnn(CC(=O)N(Cc3ccccc3Cl)C(C(=O)NCC3CCCO3)c3ccco3)n2)cc1OC (stereo unspecified)	.	.	.	-3.1	3.0	14.2%	5.8	.	11.3	0.2
CCOC(=O)c1[nH]c2ccc(OCC)cc2c1NC(=O)CN1CCCC(C)C1 (stereo unspecified)	.	.	.	3.9	1.8	21.3%	38.0	.	8.1	1.1
O=C(Nc1ccc(N2CCOCC2)nc1N1CCOCC1)c1cccc(C(F)(F)F)c1	15.6	5.4	0.6	2.7	-2.1	0.3%	-4.4	-3.3	3.6	0.2
Cn1cccc1C(C#N)c1ncc(C(F)(F)F)cc1Cl (stereo unspecified)	8.0	7.4	1.1	3.4	-0.4	1.3%	2.7	17.6	9.7	0.6
O=C1C2CC=CCC2C(=O)N1c1n[nH]c(Cc2ccccc2)n1 (stereo unspecified)	8.2	2.2	-8.8	-2.0	?	12.3%	-2.9	-1.2	-7.8	0.5
CCOC(=O)/C=C1\CC(=O)Nc2nonc2N1	.	.	.	-2.6	4.3	-3.4%	-28.3	.	-2.3	1.2
CC(C)(C)c1csc(NC(=O)c2cccs2)n1	.	.	.	13.2	?	12.9%	7.9	.	-4.4	-0.3
O=C(Nc1ccc2oc(=O)ccc2c1)c1cccnc1Cl	.	.	.	-3.3	-0.5	-0.5%	-0.6	.	-6.7	0.3
O=C(c1ccncc1)N1CCN(C2CCCCC2)CC1	20.9	12.8	1.1	1.3	-1.8	-6.3%	9.1	-1.6	-0.8	2.9
COc1cc2sc3ccc(C#Cc4ccccn4)cc3c(=O)c2cc1OC	0.4	3.9	1.9	17.3	4.8	.	37.3	.	-15.7	-0.2
Cc1ccccc1-c1ccc(/C=C2/SC(N3CCOCC3)=NC2=O)o1	4.7	-8.7	-2.8	-3.1	20.2*	6.1%	43.5	.	-2.1	-0.4
COc1cc(NC(=O)c2ccccc2F)ccc1NC(=O)c1ccccc1Cl	2.5	2.4	-2.1	3.5	-2.3	3.8%	-31.7	2.7	?	-0.3
Cn1nccc1C(=O)OCC(=O)Nc1nc(-c2ccccc2)cs1	.	.	.	0.7	.	-3.3%	4.4	.	-9.3	0.2
COc1cc(CNCc2ccncc2)cc(OC)c1OC	7.5	9.3	0.9	1.0	4.8	.	-10.2	2.9	5.8	0.2
Cn1c(NC(=O)C[n+]2cc(-c3ccccc3)n3c2CCC3)cc(=O)n(C)c1=O	.	.	.	0.4	7.1	.	-3.2	.	-12.3	-0.1
CN(C)C(=O)CSc1nc2ccccc2n1Cc1ccccc1	.	.	.	-3.5	8.1	0.7%	-5.9	.	1.4	0.3
c1ccc(-c2cc(-c3ccccc3)on2)cc1	11.0	13.5	1.1	4.4	?	-9.6%	-14.8	-9.0	-4.8	-7.3
CCCn1c2ccc(C)cc2c2nnc(SCCN3CCOCC3)nc21	-19.5	-12.8	-2.3	0.5	1.8	-4.1%	13.0	2.3	11.6	-0.1
CCN(CC)C(=O)CN1C(=O)NC2(CCc3ccccc3C2)C1=O (stereo unspecified)	12.4	11.5	2.7	0.5	1.9	25.8%	-3.1	-1.6	-5.2	0.6
CCOC(=O)C(NC(=O)c1ccccc1)=C(C)C	10.0	-1.0	3.0	5.0	3.1	-0.5%	-10.3	-4.6	-18.4	1.2
CC(C)CC(=O)N1CCN(S(=O)(=O)c2ccc(Cl)cc2)CC1	5.6	-0.4	0.7	2.3	-2.9	1.9%	9.1	0.2	-3.3	-0.1
COC(=O)c1ccc(Cn2nnc3c(=O)[nH]c(C4CCCN(S(=O)(=O)c5cccc(Cl)c5)C4)nc32)cc1 (stereo unspecified)	5.0	7.8	-1.9	5.4	2.5	.	8.0	1.3	?	-1.4
Cc1cc(=O)n2[nH]c(N)c(N=Nc3ccccc3F)c2n1	.	.	.	1.2	-1.8	-1.3%	-12.7	4.1	2.2	-5.4
CN(CC(=O)Nc1ccc(F)c(F)c1F)C(=O)c1ccc(-n2cncn2)c([N+](=O)[O-])c1	13.2	11.7	4.6	6.2	-0.7	0.6%	-18.5	-14.5	-1.5	0.5
Cc1coc2cc3oc(=O)c4c(c3cc12)CCC4	.	.	.	4.6	0.7	9.2%	-2.4	.	17.0	-0.1
COc1cccc(CC(=O)OCC(=O)NC2CCCC2)c1	4.8	5.6	-1.5	0.9	.	-1.8%	.	-0.5	.	-1.6
O=C(NCCCN1CCN(c2ccccc2F)CC1)C1CCCN(S(=O)(=O)c2cnc[nH]2)C1 (stereo unspecified)	7.9	11.2	-2.4	.	?	1.1%	-9.3	-0.8	0.9	.
